# GALR2 ag: agonists of human galanin receptor 2 (GALR2); activation, %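 (tested at 5 µM)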; AID 803; O43603; GALR2-expressing cells, agonist activation read-out; hit rate 0.48% among 140,000;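 active = above mean plus 3 SD of all compounds, about 5% in these data, not always enough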;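 also: 0% = vehicle buffer wells and 100% = reference agonist at full effect; tested in CHO reporter cells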
# Target sequence (O43603 whole entry, looked up): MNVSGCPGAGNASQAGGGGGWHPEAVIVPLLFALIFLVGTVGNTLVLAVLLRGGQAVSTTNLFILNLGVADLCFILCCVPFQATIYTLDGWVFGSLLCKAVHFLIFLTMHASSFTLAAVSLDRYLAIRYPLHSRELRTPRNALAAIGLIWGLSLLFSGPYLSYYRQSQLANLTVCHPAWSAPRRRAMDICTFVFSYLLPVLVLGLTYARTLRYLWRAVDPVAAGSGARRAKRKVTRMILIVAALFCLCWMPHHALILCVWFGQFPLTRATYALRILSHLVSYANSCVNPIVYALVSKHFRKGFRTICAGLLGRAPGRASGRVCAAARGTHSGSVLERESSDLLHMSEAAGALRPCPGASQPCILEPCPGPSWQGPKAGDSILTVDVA
# HSV augment: HSV replication enhancement | HSV replication augmentation in cells, fold increase | hit rate 0.005% among 220,000 | maximum fold increase;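 active = peak rise of 1.5-fold or more in the series; tested in PC3 cells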;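 also: first round at 10 µM; read as green reporter fluorescence; hits show the peak of a series up to 25 µM; 1 = signal of infected wells without compound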
# Insulin prom inh: TRM-6 insulin promoter activity inhibition; TRM-6 cells (human fetal islet line), insulin promoter-eGFP reporter, imaging; reporter expression induced with tamoxifen; inhibition, % at 2 µM; hit rate 0.9% among 130,000;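 active = inhibition above the mean plus 3 SD, with well images judged a real hit on visual review, cut at about 60% in these data, passing the limit was not always enough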
# RGS16-Gao HTS: modulates binding between human RGS16 and Galphao; bead-based flow cytometry RGS16-Galphao binding, fluorescence; actives lie on both sides; binding response (% of control), % at 10 µM; hit rate 0.38% among 220,000; AID 1441;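 active = below 25% or above 175%, edge rows of some plates excepted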;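 also: Galphao activated by GDP with aluminum fluoride before binding; 100% = wells without compound and 0% = beads without RGS; some results beyond the cut were filed as inactive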
# Target sequence (O15492 whole entry, looked up): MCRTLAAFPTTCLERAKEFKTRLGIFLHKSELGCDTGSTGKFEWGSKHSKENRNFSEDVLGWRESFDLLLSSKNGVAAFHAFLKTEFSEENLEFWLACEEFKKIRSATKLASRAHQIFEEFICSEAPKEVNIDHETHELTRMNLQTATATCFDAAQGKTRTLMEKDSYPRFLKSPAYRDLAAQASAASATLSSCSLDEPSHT
# Target sequence (P09471 whole entry, looked up): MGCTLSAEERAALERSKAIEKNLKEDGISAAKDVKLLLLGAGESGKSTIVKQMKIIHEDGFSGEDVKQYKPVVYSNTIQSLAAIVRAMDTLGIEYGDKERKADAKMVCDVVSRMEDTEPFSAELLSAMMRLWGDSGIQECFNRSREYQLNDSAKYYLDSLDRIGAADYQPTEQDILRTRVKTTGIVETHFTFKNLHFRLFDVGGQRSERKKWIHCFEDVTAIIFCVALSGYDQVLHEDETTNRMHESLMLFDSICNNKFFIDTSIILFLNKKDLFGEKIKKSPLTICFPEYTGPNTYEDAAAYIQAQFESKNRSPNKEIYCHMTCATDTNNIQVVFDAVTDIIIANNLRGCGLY
# PKD1 kinase inh: blocks activity of human protein kinase D1. Q15139. PKD1 kinase fluorescence polarization assay. inhibition, %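 (about 10 µM by stock and volumes)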. hit rate 0.056% among 200,000;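 active = inhibition of 50% or more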;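 also: controls were vehicle for no effect and a reference inhibitor for full effect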
# Insulin prom inh cell count: second read-out of Insulin prom inh, no call of its own (marks repeat the call); normalized cell count, %; measured here: cell count, toxicity; reference of the scale not given here;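 cells exposed to compound for 48 h; stained nuclei by imaging scaled within each plate; lower means fewer cells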
# HSV augment primary fold: recorded beside HSV augment, whose call it bears; fold increase; compound at 10 µM; measured here: primary screen fold increase 10 uM; tested in PC3 cells;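 GFP signal in the first replicate; 1 = infected wells without compound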
# * = called active by the depositor; i = inactive; x = no result given.
entry | Structure | GALR2 ag | HSV augment | HSV augment primary fold | Insulin prom inh
1 | CC(C)(C)c1ccc(OCC(=O)N/N=C/c2ccsc2)cc1 | -0.6 | i | 0.99 | x
2 | CCOC(=O)C1CCN(S(=O)(=O)c2c(C)n[nH]c2C)CC1 | -0.7 | i | 0.89 | x
3 | COc1ccc(N2CCN(c3ccc(N)cc3C#N)CC2)cc1 | -0.4 | i | 1 | 6
4 | CC(=O)c1cccc(NC(=O)CSCc2ccccc2)c1 | -0.2 | i | 1.1 | 31
5 | COC(C[C@H](O)[C@@H](C)[C@@H](O)COCc1ccccc1)OC | x | i | 0.77 | x
6 | CCC(O)(c1ccc(OC)cc1)C(CN1CCOCC1)c1ccccc1 (centres undefined) | x | i | 0.89 | x
7 | COC(=O)CN1C(=O)Nc2ccc(Br)cc2C1c1ccccc1Cl (centres undefined) | -0.9 | i | 0.9 | 54
8 | O=C(NCc1nnc(SC/C=C/c2ccccc2)o1)c1ccco1 | -0.7 | i | 1 | 42
9 | Cc1ccc(S(=O)(=O)N2CCC(=O)N(C(COCc3cccc(C)c3)C(C)C)CC2)cc1 (centres undefined) | 0.9 | i | 0.84 | -20
10 | CCOC(=O)Cn1cc(C(=O)C(C)(C)C)c2ccccc21 | x | i | 1 | -24
11 | COc1ccc(NC(=O)CSc2nncn2C)cc1OC | -1.3 | i | 1 | x
12 | Cc1onc(-c2ccccc2)c1C(=O)Nc1ccc2c(C)cc(=O)oc2c1 | -0.1 | i | 1 | 25

entry | Insulin prom inh cell count | RGS16-Gao HTS | PKD1 kinase inh
1 | x | 110 | -5
2 | x | 102 | 1
3 | 152 | 100 | -1
4 | 114 | 105 | -3
5 | x | 84 | x
6 | x | 97 | -1
7 | 136 | 103 | 1
8 | 81 | 106 | 0
9 | 125 | 103 | -5
10 | 70 | 106 | 1
11 | x | 101 | 3
12 | 118 | 58 | -7

# The listing continues.
entry | Structure | GALR2 ag | HSV augment | HSV augment primary fold | Insulin prom inh
13 | CCCCCn1c2nc3ccccc3nc2c2c(=O)n(CC(C)C)cnc21 | -0.8 | i | 0.99 | 4
14 | Nc1cccc2nc3ccccc3cc12 | 5.9 | i | 0.59 | x
15 | Cc1ccc(C(=O)n2nc(-n3cccc3)c3c(C)cc(C)nc32)cc1 | x | i | 0.97 | 18
16 | Cc1ccccc1NC(=O)Nc1ccccc1C(=O)NCc1ccccc1 | -2.3 | i | 1 | -69
17 | OCCn1c(SC2CCCCC2)nc2ccccc21 | -1.6 | i | 0.78 | 71
18 | O=C1NCCN1Cc1ccccc1F | -1.4 | i | 0.95 | -78
19 | COc1ccc(NC(=O)CCCc2c[nH]c3ccccc23)cc1OC | -0.8 | i | 0.95 | -380
20 | CC[n+]1c(-c2ccc(C)cc2)csc1Nc1c(C)n(C)n(-c2ccccc2)c1=O | -0.5 | i | 0.95 | x
21 | CN(C)/C=C(/C(=O)c1ccc(Cl)cc1)S(=O)(=O)c1ccccc1 | -0.7 | i | 0.85 | x
22 | CC12CCC(C(=O)Nc3cccnc3)(CC1=O)C2(C)C (centres undefined) | -1.1 | i | 1.1 | 32
23 | COC(=O)c1cn(Cc2cccnc2)c(=O)c2ccccc12 | x | i | 0.88 | x
24 | Cc1cc(NC(=O)c2ccc([N+](=O)[O-])cc2)n(C)n1 | x | i | 0.98 | x

entry | Insulin prom inh cell count | RGS16-Gao HTS | PKD1 kinase inh
13 | 104 | 98 | -4
14 | x | 101 | 17
15 | 113 | 106 | -2
16 | 104 | 101 | -3
17 | 146 | 100 | 3
18 | 101 | 100 | -4
19 | 30 | 101 | 14
20 | x | 101 | 4
21 | x | 100 | 14
22 | 123 | 101 | -7
23 | x | 95 | 0
24 | x | 101 | x

# (more compounds)
entry | Structure | GALR2 ag | HSV augment | HSV augment primary fold | Insulin prom inh
25 | CC(=O)OCC#CCSc1nc2ccccc2n1C | 0.3 | i | 1.1 | 33
26 | CCOC(=O)c1c(CSc2nc(C)cc(C)c2C#N)n(C)c2cc(Br)c(OC(C)=O)cc12 | -0.4 | i | 0.9 | -34
27 | COc1ccc(CCNC(=O)Cn2c(=O)cnc3ccccc32)cc1 | -1.1 | i | 0.93 | x
28 | CCOC(=O)c1c(NC(=O)CN2C(=O)NC3(CCC(C)CC3)C2=O)sc(C)c1-c1ccc(C)cc1 (centres undefined) | -0.3 | i | 0.8 | -63
29 | Fc1ccc(C2CC(c3ccccc3)Nc3ncnn32)cc1 (centres undefined) | -2.1 | i | 1.1 | x
30 | CN(C)S(=O)(=O)c1ccc(NC(=O)c2ccc([N+](=O)[O-])cc2)cc1 | x | i | 0.98 | x
31 | CC(C(=O)N1CCOCCOCCOCCOCCOCC1)N1C(=O)c2ccccc2C1=O (centres undefined) | x | i | 0.89 | -86
32 | Cc1ccc(NC(=S)N(CCCN2CCCC2)Cc2cccn2Cc2ccc(Cl)cc2)cc1 | x | i | 0.73 | x
33 | COc1cccc(CNC(=O)CCC2CCCN(Cc3cc4ccccc4o3)C2)c1 (centres undefined) | x | i | 0.98 | -104
34 | CC1CCN(S(=O)(=O)c2ccc3nc(-c4ccccn4)cc(C(=O)NCCN(C)Cc4ccccc4)c3c2)CC1 | x | i | 1 | 0
35 | O=C(CSC1CC(=O)N(c2ccc(C(=O)O)cc2)C1=O)Nc1ccc(Cl)cc1 (centres undefined) | x | i | 1.1 | x
36 | CCC(=O)Nc1nc2c(c(=O)[nH]1)CCCC2 | x | i | 0.98 | x

entry | Insulin prom inh cell count | RGS16-Gao HTS | PKD1 kinase inh
25 | 154 | 103 | -12
26 | 117 | 110 | -6
27 | x | 102 | 15
28 | 131 | 95 | -4
29 | x | 101 | 5
30 | x | 100 | x
31 | 117 | 117 | -10
32 | x | 98 | 0
33 | 67 | 108 | 1
34 | 74 | 123 | -3
35 | x | 109 | 5
36 | x | 96 | 3

# Next compounds follow:
entry | Structure | GALR2 ag | HSV augment | HSV augment primary fold | Insulin prom inh
37 | NS(=O)(=O)c1ccc(CCNC(=O)c2cc(-c3ccccn3)nc3ccc(Br)cc23)cc1 | x | i | 0.66 | x
38 | O=C(Oc1ccc2c(c1)CCC2)N1CCOCC1 | -1.7 | i | 0.95 | 37
39 | CN(C)c1ccc([C@@H]2[C@@H]([N+](=O)[O-])[C@H]3C=Cc4ccccc4N3[C@H]2C(=O)c2ccc(Cl)cc2)cc1 | -1.4 | i | 1.3 | x
40 | O=C(CN1CC(=O)Oc2ccccc21)OCC(=O)c1cccc(Br)c1 | -1.0 | i | 1.1 | x
41 | CC(=O)NC(CCS(C)(=O)=O)C(=O)Nc1c(C)cccc1C (centres undefined) | -2.7 | i | 1.1 | -30
42 | CC(C)(CO)Nc1nc(Nc2ccccc2)nc(Nc2ccccc2)n1 | 1.0 | i | 0.74 | -81
43 | O=C(CSc1nccn1-c1ccc(F)cc1)Nc1ccc2c(c1)OCO2 | -1.4 | i | 0.87 | 12
44 | COc1cc2c(cc1OC)C(C(=O)Nc1ccc3c(c1)OCCO3)C1c3ccccc3CCN1C2=O (centres undefined) | -3.0 | i | 0.93 | 25
45 | CC(=O)c1c(C)[nH]c(C(=O)OCc2ccc(F)cc2Cl)c1C | x | i | 0.96 | x
46 | O=C(Oc1ccc2c(c1)OCO2)c1ccncc1 | -1.4 | i | 0.81 | x
47 | O=C(Nc1ccccc1N1CCOCC1)c1cccnc1Cl | x | i | 0.93 | -77
48 | Cc1ccccc1OCCN1C(=O)NC2(CCc3ccccc32)C1=O (centres undefined) | -1.8 | i | 0.88 | 20

entry | Insulin prom inh cell count | RGS16-Gao HTS | PKD1 kinase inh
37 | x | 98 | 2
38 | 112 | 105 | -4
39 | x | 98 | 0
40 | x | 82 | -3
41 | 148 | 108 | 8
42 | 132 | 100 | -3
43 | 111 | 101 | -9
44 | 132 | 99 | -11
45 | x | 107 | -1
46 | x | 99 | 3
47 | 120 | 102 | -3
48 | 133 | 104 | -5

# Further entries
entry | Structure | GALR2 ag | HSV augment | HSV augment primary fold | Insulin prom inh
49 | CCN(CC)c1ccc(NC(=O)C2CC(=O)N(Cc3ccccc3)C2)cc1 (centres undefined) | x | i | 1.1 | 38
50 | CCOc1ccc(Cc2nn[nH]n2)cc1 | -2.8 | i | 0.92 | 11
51 | Cc1cccc(C(=O)N[C@H](C(=O)Nc2nccs2)C(C)C)c1 | -0.4 | i | 0.89 | x
52 | Cc1ccc(Nc2nnc(SCC(=O)Nc3cc(C(=O)O)ccc3C)s2)c(C)c1 | x | i | 0.87 | x
53 | COc1ccc(NC(=O)c2ccc(OCc3c(C)noc3C)c(OC)c2)cn1 | x | i | 0.94 | x
54 | COCCNC(=O)NC(=O)COC(=O)c1cccn1C | x | i | 1.1 | -29
55 | Cc1nn(CCCC(=O)NCc2ccc(F)cc2)c(C)c1[N+](=O)[O-] | 0.0 | i | 0.96 | -26
56 | O=C1C2C3C=CC(C4CC34)C2C(=O)N1/N=C/c1cccs1 (centres undefined) | -0.9 | i | 1 | -10
57 | CCC(C)C(NC(=O)OC(C)(C)C)C(=O)NC(C)C(N)=O (centres undefined) | x | i | 1 | -7
58 | CC1C/C(=C\c2cccnc2)C(=O)/C(=C/c2cccnc2)C1 (centres undefined) | -0.6 | i | 0.53 | -8
59 | Cn1nnnc1SC(C(=O)Nc1ccc(F)cc1)c1ccccc1 (centres undefined) | x | i | 0.85 | 17
60 | CCOC(=O)C1=C(N)OC2=C(C(=O)CC(C)(C)C2)C1c1cccnc1 (centres undefined) | -2.1 | i | 0.84 | -4

entry | Insulin prom inh cell count | RGS16-Gao HTS | PKD1 kinase inh
49 | 102 | 107 | -4
50 | 91 | 101 | -4
51 | x | 105 | -6
52 | x | 102 | x
53 | x | 101 | -7
54 | 76 | 97 | 3
55 | 106 | 109 | 3
56 | 89 | 104 | 1
57 | 117 | 107 | -4
58 | 29 | 100 | -4
59 | 86 | 103 | -6
60 | 52 | 93 | 2

# As a working copy, part of the list above.
entry | Structure | GALR2 ag | HSV augment | HSV augment primary fold | Insulin prom inh
47 | O=C(Nc1ccccc1N1CCOCC1)c1cccnc1Cl | x | i | 0.93 | -77
48 | Cc1ccccc1OCCN1C(=O)NC2(CCc3ccccc32)C1=O (centres undefined) | -1.8 | i | 0.88 | 20
49 | CCN(CC)c1ccc(NC(=O)C2CC(=O)N(Cc3ccccc3)C2)cc1 (centres undefined) | x | i | 1.1 | 38
50 | CCOc1ccc(Cc2nn[nH]n2)cc1 | -2.8 | i | 0.92 | 11
51 | Cc1cccc(C(=O)N[C@H](C(=O)Nc2nccs2)C(C)C)c1 | -0.4 | i | 0.89 | x
52 | Cc1ccc(Nc2nnc(SCC(=O)Nc3cc(C(=O)O)ccc3C)s2)c(C)c1 | x | i | 0.87 | x
53 | COc1ccc(NC(=O)c2ccc(OCc3c(C)noc3C)c(OC)c2)cn1 | x | i | 0.94 | x
54 | COCCNC(=O)NC(=O)COC(=O)c1cccn1C | x | i | 1.1 | -29
55 | Cc1nn(CCCC(=O)NCc2ccc(F)cc2)c(C)c1[N+](=O)[O-] | 0.0 | i | 0.96 | -26
56 | O=C1C2C3C=CC(C4CC34)C2C(=O)N1/N=C/c1cccs1 (centres undefined) | -0.9 | i | 1 | -10
57 | CCC(C)C(NC(=O)OC(C)(C)C)C(=O)NC(C)C(N)=O (centres undefined) | x | i | 1 | -7

entry | Insulin prom inh cell count | RGS16-Gao HTS | PKD1 kinase inh
47 | 120 | 102 | -3
48 | 133 | 104 | -5
49 | 102 | 107 | -4
50 | 91 | 101 | -4
51 | x | 105 | -6
52 | x | 102 | x
53 | x | 101 | -7
54 | 76 | 97 | 3
55 | 106 | 109 | 3
56 | 89 | 104 | 1
57 | 117 | 107 | -4

# Further entries
entry | Structure | GALR2 ag | HSV augment | HSV augment primary fold | Insulin prom inh
61 | CCNc1ccc(S(N)(=O)=O)cc1[N+](=O)[O-] | -0.5 | i | 0.97 | -16
62 | O=C(c1ccccc1)N1CCN(c2ccc(Cl)cc2)CC1 | -0.5 | i | 0.97 | x
63 | Cn1c(=O)c(-c2ccccc2N)nc2ccccc21 | 0.5 | i | 0.99 | -29
64 | CC(=O)c1c(C)[nH]c(C(=O)OCC(=O)Nc2cc(C)on2)c1C | 0.6 | i | 1.1 | 28
65 | COc1ccc(OC)c(Nc2nc(NCc3ccco3)nc(N)c2[N+](=O)[O-])c1 | x | i | 0.6 | x
66 | CSc1sc(C(=O)N2CCCCC2)c(-c2cccs2)c1C#N | x | i | 1 | x
67 | O=C(C1CCCO1)N1CCN(c2ccccn2)CC1 (centres undefined) | x | i | 0.98 | 30
68 | CC(C)CCNC(=O)c1cc2c(s1)-c1ccccc1S(=O)(=O)C2 | x | i | 0.99 | x
69 | COc1ccc(Br)cc1S(=O)(=O)N1CCCC1 | -0.8 | i | 0.96 | 38

entry | Insulin prom inh cell count | RGS16-Gao HTS | PKD1 kinase inh
61 | 124 | 106 | 10
62 | x | 103 | 0
63 | 145 | 92 | 0
64 | 107 | 99 | -2
65 | x | 93 | x
66 | x | 101 | x
67 | 161 | 100 | -7
68 | x | 106 | x
69 | 143 | 12 | 6

# Screening results (PubChem)
